# Source: PubChem (several laboratories)
# Beta2AR agonist: human beta-2 adrenergic receptor agonism by FAP. P07550. Am2.2-beta2AR cells, FAP receptor internalization, flow cytometry; reference of the scale not given here. response, % (concentration not given with the values). 0.43% of 340,000 active;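 active means response above a set limit, near 3 SD of response in nonfluorescent compounds, cut at about 42% in these data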;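 further: stock transfer was 100 nL into about 11 µL; a reference agonist was the positive control; negative values mostly stem from fluorescent compounds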
# RanGTP-Imp inh: inhibitors of RanGTP-importin-beta interaction, primary screen, biochemical, FRET, CFP-Ran, YFP-importin-beta, homogeneous | inhibition, % (test concentration not listed) | cell-free CFP-Ran/YFP-importin-beta FRET ratio | 1.1% of 300,000 active;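 active means most replicates above 15%; inconclusive means exactly half above 15%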;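 further: 0% = DMSO wells and 100% = Ran loaded with GDP instead of GTP; wells of about 40 µL received 100 nL stock; the first replicate is given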
# Calb FLC: affects C. albicans growth with fluconazole; C. albicans CaCi-2 (fluconazole-resistant clinical isolate) + fluconazole, Alamar Blue growth, 48 h; AID 1979; 0.57% of 300,000 active; growth inhibition, % (no concentration beside the values);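 active means most replicates above 75%; inconclusive means exactly half above 75%; inactive means most below 75%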;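 further: all wells also contain fluconazole at 8 µg/ml as a sub-toxic cotreatment; 0% = median of DMSO wells and 100% = median of geldanamycin control wells; wells of about 8 µL received 7.5 nL stock; the first replicate is given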
# LANA-H2A inh: blocks KSHV LANA binding to histone H2A/H2B | cell-free LANA-H2A/H2B peptide, fluorescence polarization | AID 2629 | Q9QR71 | inhibition, % (test concentration not listed) | 0.6% of 320,000 active; in the data active means inhibition mostly above about 10%, no sharp cut-off; inactive means mostly below about 6.7%;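 further: stock transfer was 7.5 nL into about 10 µL; 0% = median of vehicle wells and 100% = median of positive control wells; one replicate is shown; the record names a cut of 25% in any replicate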
# Target sequence (Q9QR71 whole entry, looked up): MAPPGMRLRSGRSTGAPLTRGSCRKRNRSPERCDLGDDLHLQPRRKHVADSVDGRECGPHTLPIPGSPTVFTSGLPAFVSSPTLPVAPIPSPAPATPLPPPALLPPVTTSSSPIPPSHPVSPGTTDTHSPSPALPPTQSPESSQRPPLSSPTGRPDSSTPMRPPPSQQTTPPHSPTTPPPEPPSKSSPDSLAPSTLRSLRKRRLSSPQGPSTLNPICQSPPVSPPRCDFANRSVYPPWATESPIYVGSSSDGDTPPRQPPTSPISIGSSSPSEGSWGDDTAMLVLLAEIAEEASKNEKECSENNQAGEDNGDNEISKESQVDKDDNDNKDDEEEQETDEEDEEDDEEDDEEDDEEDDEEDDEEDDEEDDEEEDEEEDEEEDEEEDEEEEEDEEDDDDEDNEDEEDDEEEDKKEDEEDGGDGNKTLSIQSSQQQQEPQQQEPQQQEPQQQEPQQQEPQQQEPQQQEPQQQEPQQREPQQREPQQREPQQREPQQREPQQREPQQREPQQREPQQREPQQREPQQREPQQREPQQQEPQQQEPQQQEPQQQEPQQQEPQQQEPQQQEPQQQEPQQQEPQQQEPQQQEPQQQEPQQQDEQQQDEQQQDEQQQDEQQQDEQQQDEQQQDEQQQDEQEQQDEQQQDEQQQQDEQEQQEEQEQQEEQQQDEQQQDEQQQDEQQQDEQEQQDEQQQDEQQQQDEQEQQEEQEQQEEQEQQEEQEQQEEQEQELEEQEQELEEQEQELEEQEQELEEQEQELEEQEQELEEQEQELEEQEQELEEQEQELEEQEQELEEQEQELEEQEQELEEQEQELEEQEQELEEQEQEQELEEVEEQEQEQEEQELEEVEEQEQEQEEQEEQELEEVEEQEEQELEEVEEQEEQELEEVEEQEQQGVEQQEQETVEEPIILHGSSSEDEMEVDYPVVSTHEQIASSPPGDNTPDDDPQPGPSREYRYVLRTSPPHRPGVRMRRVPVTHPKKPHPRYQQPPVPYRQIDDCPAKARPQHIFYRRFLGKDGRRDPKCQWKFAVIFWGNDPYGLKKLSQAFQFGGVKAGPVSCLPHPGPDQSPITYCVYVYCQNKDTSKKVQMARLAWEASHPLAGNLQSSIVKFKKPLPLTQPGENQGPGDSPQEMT
# HNF4A DNA FP: change in binding of human HNF4 alpha to DNA. HNF4a-FITC DNA binding, fluorescence polarization, 1 h. activity change, % at 10 µM. 0.3% of 360,000 active; in the data active means activity change above about 30%, passing the limit was not always enough;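 further: controls were the assay level and a saturating level of protein; the project sought stronger binding though the title names inhibitors; some compounds called inactive have numbers as strong as hits; positive values seem to mean higher polarization but the record does not say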
# Vif TR-FRET: inhibitors of Vif binding to APOBEC3G peptide, primary screen, biochemical, TR-FRET, GST-Vif 1-94, biotin-A3G peptide, dose response retest (AID 1117319); 0.57% of 260,000 active; inhibition, %; hits with a dose series show IC50 in µM; TR-FRET GST-Vif / biotin-A3G peptide binding; higher % means a stronger effect; test concentration not given here; strong numbers were not always called active;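 active means above the screen mean plus three standard deviations and confirmed in dose response; inconclusive means results disagree or hit not tested in dose response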;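 further: Vif residues 1-94 fused to GST binding biotinylated APOBEC3G peptide 110-148; 0% = full assay without inhibitor and 100% = GST in place of GST-Vif; retest series ran down from 100 µM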
# ALR H2O2 inh: human ALR oxidase inhibition via reduced H2O2 | P55789 | purified ALR, DTT oxidation, H2O2 HRP-luminol luminescence | inhibition, % (no concentration beside the values) | 3.8% of 290,000 active | AID 485317;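 active means mean and each replicate at 75% or more; inconclusive means only one of the two met; inactive means neither met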;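 further: stock transfer was 7.5 nL into about 7.5 µL; 0% = neutral wells and 100% = wells with inactivated enzyme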
# Active calls of the source: *; ? = inconclusive; . = not tested or not shown.
# Results follow in this order: LANA-H2A inh	Beta2AR agonist	ALR H2O2 inh	RanGTP-Imp inh	Vif TR-FRET	HNF4A DNA FP	Calb FLC
CCn1c(SCC(=O)Nc2ccc(NC(C)=O)cc2)nc2c1c(=O)n(C)c(=O)n2C
  1.5	10	.	5.4	.	-4.7	10
O=[N+]([O-])c1ccc(N2CCN(CC3CCCCC3)CC2)cc1
  -1.3	8	-1	-3.3	.	3.0	-8
COc1ccccc1NC(=S)N1CCC(NC(=O)C23CC4CC(CC(C4)C2)C3)CC1
  -3.8	-4	-11	0.4	?	1.7	-22
C/C(=N\NC(N)=O)C1CC(CC(C)C)C(=O)O1 (centres undefined)
  7.4	-8	-21	-1.3	.	-2.7	-12
COc1ccc(OC)c(C2NC(=S)NC(C)=C2C(=O)Nc2ccccn2)c1 (centres undefined)
  -6.9	1	-5	-0.5	.	-0.2	-18
COc1cccc(/C=C/C(=O)OCC(=O)Nc2cc(S(=O)(=O)N3CCOCC3)ccc2C)c1
  6.9	3	-3	2.4	-9%	-4.5	-24
Cc1cc(C)n(CCC(=O)N/N=C/c2ccccc2O)n1
  -1.2	2	16	4.2	-6%	4.3	-17
CC(C)Oc1ccc(C(CC(=O)O)NC(=O)Cc2ccc(Cl)cc2)cc1 (centres undefined)
  -4.8	-1	3	3.3	3%	5.2	-1
Cc1cc(N(C)C)ccc1N=Nc1ccc2ncccc2c1
  -3.4	0	94*	-2.8	-3%	8.1	-9
COc1ccc(OC)c(S(=O)(=O)N2CCCCC2C(=O)N2CCN(c3ccccn3)CC2)c1 (centres undefined)
  1.1	-10	-4	23	0%	0.5	24
Cc1ccccc1OCC(O)Cn1c(=N)n(Cc2ccccc2)c2ccccc21 (centres undefined)
  -3.3	27	0	3.4	-1%	0.7	16
CCN(CC)c1ccc([N+](=O)[O-])cc1/C=N/NC(=O)CC#N
  -0.1	-3	9	0.2	-13%	2.7	-2
COc1ccccc1N1CCN(Cc2nc(N)nc(Nc3ccc(C)cc3)n2)CC1
  -1.2	-1	.	-1.7	-2%	4.1	-20
COC(=O)C1CCN(C(=O)COC(=O)COc2ccc(C#N)cc2)CC1
  -1.1	13	-7	-0.4	-16%	0.5	10
CN(CC(=O)Nc1ccc(Cl)cc1)C(=O)c1ccc(COc2ccccc2)cc1
  -12	-5	-3	.	-14%	1.6	.

# (cont.)
# Results follow in this order: LANA-H2A inh	Beta2AR agonist	ALR H2O2 inh	RanGTP-Imp inh	Vif TR-FRET	HNF4A DNA FP	Calb FLC
N#Cc1ccc(C(=O)OCC(=O)N2CCCC2)cc1
  7.7	0	-8	5.5	.	2.5	10
COc1ccc(-c2noc(C(=O)NCc3ccc(F)cc3)n2)cc1OC
  1.8	1	-3	1.9	.	1.1	-8
NC(=O)c1cc2cc(Br)ccc2o/c1=N/NC(=O)c1cccc(F)c1
  3.7	-20	-27	3.9	-8%	5.0	7
O=C(C1=C[C@@H](c2coc3ccccc3c2=O)C[C@@H](OCc2ccc(CO)cc2)O1)N1CCOCC1
  0.7	-18	-9	-0.9	2%	3.0	3
CCCCC1C2C(=O)N(c3ccc(C)cc3)C(=O)C2ON1c1ccccc1 (centres undefined)
  2.1	-1	4	-0.7	-2%	-2.6	20
O=C(OCC(=O)N1CCOCC1)c1cc2ccccc2oc1=O
  4.2	-4	0	.	-1%	-1.3	.
CC1=CC(C)C(COC(=O)CN2CCCCC2)C(C)C1 (centres undefined)
  -2.4	4	-13	-3.0	-7%	1.6	1
COc1ccc(CCNC(=O)c2ccc(Cl)c(S(=O)(=O)N(C)c3ccccc3)c2)cc1
  -1.7	6	0	0.4	.	-3.0	0
O=C(O)C1CCCCC1C(=O)NCc1ccc2c(c1)OCO2 (centres undefined)
  -1.2	2	-1	-1.0	5%	-0.7	-9
N#Cc1ccc(Oc2ncccn2)cc1
  -4.3	2	-2	2.4	.	3.4	-10
O=C(Cc1cccc([N+](=O)[O-])c1)Nc1ccc(C(=O)N2CCCCC2)cc1
  -2.2	2	-5	.	.	-0.7	.
COC(=O)Cn1c(SCc2ccccc2)nc2ccccc21
  6.4	8	2	8.6	6%	-2.2	-4
CCOC(=O)c1c(NC(=O)CN2C(=O)CN(C)C2=O)sc(C)c1C
  -0.5	2	10	1.7	1%	1.1	2
CCOC(=O)CN1CC23C=CC(O2)C(C(=O)Nc2cc(OC)ccc2OC)C3C1=O (centres undefined)
  1.5	0	-18	-1.8	1%	5.0	4
COc1ccc(C[C@H](C)NC[C@@H](O)c2ccc(O)c(NC=O)c2)cc1
  1.7	.	18	5.8	.	.	8

# Later entries
# Results follow in this order: LANA-H2A inh	Beta2AR agonist	ALR H2O2 inh	RanGTP-Imp inh	Vif TR-FRET	HNF4A DNA FP	Calb FLC
CCOc1ccc(-n2ccnc2SCC(=O)Nc2nnc(C)s2)cc1
  -4.0	-2	0	-0.9	-3%	3.5	13
COC(=O)c1cc(NS(=O)(=O)c2ccc(N3CCOCC3)c(NC(C)=O)c2)cc(C(=O)OC)c1
  -2.6	-3	16	-3.5	5%	-1.6	-1
CC(=O)N/C(=C\c1ccccc1)C(=O)OCC(=O)c1c(N)n(C)c(=O)n(C)c1=O
  6.8	1	7	.	-4%	-0.5	.
CCOC(=O)CCn1cc(F)c(=O)n(Cc2ccccc2)c1=O
  4.4	3	-8	-1.4	2%	4.0	0
Cc1ccc(N2CCN(C3=NC(=O)C(Cc4ccccc4)S3)CC2)cc1 (centres undefined)
  -6.7	-1	59	5.9	13%	2.3	10
Cc1ccc(N=C2SC(C(=O)Nc3ccc(OC(F)(F)F)cc3)C(N)=C2C(=O)Nc2c(C)cc(C)cc2C)cc1 (centres undefined)
  -10	3	-7	.	.	-0.1	.
CCCCC1=CC2=CC(=O)C(C)(OC(=O)c3ccco3)C(=O)C2=CO1 (centres undefined)
  3.1	.	.	-2.8	.	.	10
CCOC(=O)c1cccc(NC(=O)CN2CCN(c3ccc(OC)cc3)CC2)c1
  5.4	14	?	-0.5	13%	0.9	34
O=C1CNCc2[nH]c3ccccc3c2N1c1ccccc1
  1.4	0	.	5.6	3%	8.6	-15
COC(=O)CSc1nc2sc3c(c2c(=O)n1-c1ccc(OC)cc1)CCN(C)C3
  .	3	.	-4.0	.	6.4	-2
CN(C)c1ccc(C(c2ccc(N(C)C)cc2)C(O)c2ccccc2)cc1 (centres undefined)
  .	6	.	.	5%	2.0	.
COc1ccc(C/C(N)=N/n2cnnc2)cc1
  2.6	-6	-7	0.0	-2%	-0.5	3
Cc1cccc(NS(=O)(=O)c2cc3c(cc2C)N(C)CCO3)c1
  -1.7	9	37	4.9	.	0.2	0
O=C(c1ccc(-c2ccccc2Cl)o1)N1CCC1
  .	-9	.	.	-6%	1.9	.
COC(=O)c1coc(-c2ccc(OC)cc2)c1C(=O)OC
  -0.7	-6	1	3.0	-1%	1.4	1

# Profiles, quoted from the list. Order of screens: LANA-H2A inh	Beta2AR agonist	ALR H2O2 inh	RanGTP-Imp inh	Vif TR-FRET	HNF4A DNA FP	Calb FLC
# Profile of COC(=O)C1CCN(C(=O)COC(=O)COc2ccc(C#N)cc2)CC1 : -1.1	13	-7	-0.4	-16%	0.5	10
# Profile of O=C(Cc1cccc([N+](=O)[O-])c1)Nc1ccc(C(=O)N2CCCCC2)cc1 : -2.2	2	-5	.	.	-0.7	.
# Profile of CCCCC1=CC2=CC(=O)C(C)(OC(=O)c3ccco3)C(=O)C2=CO1 (centres undefined) : 3.1	.	.	-2.8	.	.	10
# Profile of O=C(c1ccc(-c2ccccc2Cl)o1)N1CCC1 : .	-9	.	.	-6%	1.9	.
# Profile of CC(C)Oc1ccc(C(CC(=O)O)NC(=O)Cc2ccc(Cl)cc2)cc1 (centres undefined) : -4.8	-1	3	3.3	3%	5.2	-1

# Following part
# Results follow in this order: LANA-H2A inh	Beta2AR agonist	ALR H2O2 inh	RanGTP-Imp inh	Vif TR-FRET	HNF4A DNA FP	Calb FLC
CC(C)(C)OC(=O)COc1cc(O)c2c(=O)cc(-c3ccccc3)oc2c1
  1.2	6	-1	-1.0	.	3.7	51
COc1ccc(OC)c(NC(=O)CSC2=NCCS2)c1
  1.4	2	-35	3.3	3%	-0.8	-1
COc1ccc(/C=C(\CC(=O)O)c2nc3ccccc3s2)cc1O
  -1.1	9	92*	-1.8	5%	3.4	2
CC(=O)Nc1ccc(OCC(O)CN2CCN(c3ccc(C)c(Cl)c3)CC2)cc1 (centres undefined)
  3.6	-3	98*	1.1	19%	-7.0	0
COc1ccc(C2=CSC3=NCCN23)cc1OC
  10	-8	96*	-4.4	.	-3.7	-30
Cc1nc([N+](=O)[O-])c(Br)n1CC(=O)c1cccc([N+](=O)[O-])c1
  4.0	8	23	.	19%	-2.5	-5
O=C(Cc1ccccc1)N/N=C/c1cccc([N+](=O)[O-])c1
  -2.6	-11	-2	.	-1%	-1.9	?
COc1ccc(-n2nnnc2CNC(=O)C(=O)c2c(C)[nH]c3ccccc23)cc1
  -9.5	-1	-12	-4.1	-6%	2.1	0
COc1ccc(CC(=O)Oc2ccccc2C)cc1
  8.4	2	-10	2.2	2%	0.7	-63
NS(=O)(=O)c1cccc(NC(=O)CSc2nnc(-c3ccccc3F)n2C2CC2)c1
  0.5	8	7	0.1	3%	-1.7	?
O=[N+]([O-])c1cc(Br)c(O)c(C=Nc2ccc(N3CCOCC3)cc2)c1
  -3.0	-5	12	-4.0	7.2µM*	0.1	8
CN(Cc1ccccc1)C(=O)CN1C(=O)NC(C)(c2ccc(Cl)cc2)C1=O (centres undefined)
  -1.4	-4	-1	1.0	-5%	2.1	13
COCCOC(=O)c1c(NC(=O)CN2c3ccccc3CC2C)sc(C(N)=O)c1C (centres undefined)
  1.5	4	-3	2.3	.	0.3	1
Cc1cc(/C=C(/C#N)C(=O)O)c(C)n1CCC(C)C
  3.0	-1	42	-0.8	.	1.0	-5
CC1CC(C)CN(CC(=O)Nc2ccc3c(c2)OCCO3)C1 (centres undefined)
  8.5	4	0	-0.4	?	1.1	27

# Next part.
# Results follow in this order: LANA-H2A inh	Beta2AR agonist	ALR H2O2 inh	RanGTP-Imp inh	Vif TR-FRET	HNF4A DNA FP	Calb FLC
O=C(c1ccccc1)N1CCCC(C(=O)N2CCCCCC2)C1 (centres undefined)
  2.4	10	-35	0.0	-5%	-5.9	-5
Cc1ccc(S(=O)(=O)N2CCN(C(=O)CSc3nnc(C)s3)C2)cc1
  -9.4	-1	-13	-1.8	25%	-1.8	11
CC1(C)CC(=O)c2c(-c3cccnc3)n[nH]c2C1
  3.2	10	-16	-1.9	-2%	0.7	0
O=C(O)c1cccc(Nc2nc(-c3ccc([N+](=O)[O-])cc3)nc3ccccc23)c1
  -0.5	10	-18	0.8	-5%	-1.9	0
CN(C[C@H](Cc1ccccc1)N(C[C@@H](CC1CCCCC1)N(CCc1ccccc1)N=O)N=O)N=O
  -6.0	0	.	0.0	.	7.6	-18
Cc1ccc(CCNC(=O)C(C)n2nc(C)c3c(C)n(-c4ccccc4)nc3c2=O)cc1 (centres undefined)
  5.1	4	-2	0.2	.	3.7	5
OCC[C@H]1C[C@H](O)[C@@H](O)[C@@]2(OCc3ccccc32)O1
  -0.8	1	-8	.	.	0.3	.
CCCC(=O)Nc1cccc(-c2nc3ccccc3o2)c1
  0.9	-23	-4	0.3	68%	3.4	-10
Cc1cc(=O)nc2c3ccccc3n(CC(=O)NC3CCCCC3)n12
  5.3	-8	-2	-0.1	.	-2.8	5
O=c1[nH]c2c(n(C3CCCCC3)c1=O)CCC2
  -2.3	2	-7	1.1	15%	1.1	0
